Arbovirus inh – antivirals against arbovirus infection; inhibition, % at 10 µM; arbovirus infection cell-based antiviral screen; 200,000 compounds, 0.37% hits; AID 1251;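 active means inhibition from about 30%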;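 further: bluetongue infection of BSR cells; cell survival read as ATP light after 72 h; 0% = infected wells without compound and 100% = uninfected wells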
Mtb betalactam – beta-lactam sensitization of Mtb H37Rv; inhibition, % at 25 µM; M. tuberculosis H37Rv growth with meropenem, percent inhibition; hits of this screen are not shown here; 330,000 compounds, 0.27% hits;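 active means about 74% or more and at least 40 points above the plate without the antibiotic, then above 30% in a dose series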;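 further: growth measured after seven days incubation then overnight dye step; 0% = bacteria only wells and 100% = bacteria with antibiotic; twin plates without the antibiotic show which effects depend on it; some results filed as inactive read as strong as hits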
YopH inh – blocks Yersinia enterocolitica YopH tyrosine phosphatase; fluorescence Ex485/Em525; inhibition, %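 (about 10 µM by stock and volumes)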; 140,000 compounds, 0.16% hits; AID 898;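 active means inhibition of 50% or more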;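 further: controls were vehicle for no effect and minimum signal wells for full effect; inactives centre near -20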
Mtb growth – M. tuberculosis H37Rv growth inhibitors, H37Rv strain (AID 1626); 220,000 compounds, 0.95% hits; M. tuberculosis H37Rv growth inhibition; higher % means a stronger effect; inhibition, % at 10 µM, or IC50 in µM where a hit was titrated;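 active means confirmed in a dose series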;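 further: bacteria incubated seven days before Alamar blue readout; 0% = bacteria only wells and 100% = bacteria with antibiotic wells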
RecA splice inh – inhibitors of M. tuberculosis RecA intein splicing | P9WHJ3 | cell-free RecA intein splicing, fluorescence | inhibition, %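 (about 9 µM by stock and volumes)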 | 290,000 compounds, 0.75% hits; in the data active means inhibition above about 30%;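 further: 0% = vehicle wells and 100% = reference inhibitor control wells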
Target sequence (P9WHJ3 whole entry, looked up, canonical isoform): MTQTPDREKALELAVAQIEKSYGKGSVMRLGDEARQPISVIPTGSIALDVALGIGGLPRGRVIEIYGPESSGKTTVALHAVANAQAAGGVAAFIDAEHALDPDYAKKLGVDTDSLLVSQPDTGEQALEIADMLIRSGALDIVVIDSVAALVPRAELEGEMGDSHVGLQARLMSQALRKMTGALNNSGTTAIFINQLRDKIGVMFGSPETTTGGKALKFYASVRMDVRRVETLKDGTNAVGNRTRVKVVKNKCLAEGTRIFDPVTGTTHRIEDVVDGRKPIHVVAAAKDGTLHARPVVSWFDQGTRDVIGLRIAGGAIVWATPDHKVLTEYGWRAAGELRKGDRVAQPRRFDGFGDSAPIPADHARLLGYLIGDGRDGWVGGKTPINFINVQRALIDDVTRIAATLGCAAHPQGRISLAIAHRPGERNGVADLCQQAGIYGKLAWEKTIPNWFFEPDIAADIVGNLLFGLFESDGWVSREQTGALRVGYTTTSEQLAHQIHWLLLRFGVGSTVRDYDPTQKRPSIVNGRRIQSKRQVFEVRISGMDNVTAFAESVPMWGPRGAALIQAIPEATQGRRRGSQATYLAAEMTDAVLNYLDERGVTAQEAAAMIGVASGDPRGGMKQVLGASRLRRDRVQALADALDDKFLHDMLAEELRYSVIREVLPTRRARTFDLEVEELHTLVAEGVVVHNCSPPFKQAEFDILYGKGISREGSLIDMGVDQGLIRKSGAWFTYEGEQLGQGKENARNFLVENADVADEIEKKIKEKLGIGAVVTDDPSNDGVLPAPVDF
Arbovirus inh repeat – also measured in Arbovirus inh; calls as there; inhibition, %; measured here: 10K subset replicate screen; many hits read low in the repeat;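 first of two repeat runs on a subset; 0% = infected and 100% = uninfected wells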
* marks the source's active call; other numbers are inactive results; x = no result given.

SMILES	Arbovirus inh	Mtb betalactam	YopH inh	Mtb growth	RecA splice inh	others
NC(=O)c1c(NC(=O)CCCC(=O)O)sc2c1CCCCCC2	4	2	-15	1%	0.0
Cc1ccc(C(=O)O/N=C(\c2ccccc2)c2cccnc2)cc1	-4	61	-19	-9%	x
O=C(COC(=O)CNS(=O)(=O)c1ccc(Br)cc1Cl)Nc1ccc(N2CCOCC2)cc1	x	-1	x	x	-1.7
O=P(O)(CCc1ccncc1)CN1CCCCC1	9	1	-41	0%	-1.1	Arbovirus inh repeat=4
COc1ccc(N2CC(C(=O)Nc3ccccc3N3CCCC3)CC2=O)c(OC)c1 (centres undefined)	x	1	x	x	0.5
CCCCn1c(N)c(N(CCC(C)C)C(=O)C2CCN(C(=O)c3ccccc3C)CC2)c(=O)[nH]c1=O	x	-11	x	x	0.1
COc1ccc2oc(-c3ccccc3)c(C(=O)N3CCOCC3)c2c1	2	-5	0	-8%	-2.6	Arbovirus inh repeat=-8
O=C(NCCO)C1(c2ccc(Cl)cc2)CCCC1	2	-7	-30	-8%	11
COc1cc2c(cc1/C=C1/NC(=O)N(c3ccccc3)C1=O)OCO2	-6	0	-28	5%	-2.7
CN(C)CCCN(C(=O)c1ccc2c(c1)CCCC2)c1nc2ccc(F)cc2s1	-23	56	-27	63%	2.5
CCOc1ccc(NC(=O)COC(=O)c2ccc3c(c2)C(=O)N(CCc2ccccc2)C3=O)cc1	7	-4	-5	8%	1.9
O=c1c2ccccc2nc(-c2ccco2)n1/N=C/c1ccco1	10	1	-61	-10%	-3.9
CCCCN(CC)CCNC(=O)c1ccc2c(Cl)c3c(nc2c1)CCC3	x	-1	x	x	1.8
O=C(COC(=O)Cn1cnc2ccccc21)NCCCc1ccccc1	-1	3	x	-2%	-0.4
COc1cc(C)nc(N2CCCC(C(=O)Nc3cccc(Cl)c3C)C2)n1 (centres undefined)	-18	-8	-44	0%	-1.4
CCOC(=O)c1cc(NC(=O)c2ccc(Cl)cc2)c(=O)n2c1oc1ccc(Cl)cc12	-8	5	-46	-7%	-1.5
Cc1cc(Nc2ccc(Br)cc2F)n2ncnc2n1	-3	5	-18	x	3.0	Arbovirus inh repeat=-4
CCCN1C(=O)c2cc(C(=O)Nc3ccccc3C)ccc2C1Nc1ccccc1C (centres undefined)	x	10	x	-3%	4.4
CCOC(=O)N1CCN(C(=O)C2CC(=O)N(c3ccc(OC)cc3)C2c2ccc(OC)cc2)CC1 (centres undefined)	-4	-1	23	-15%	-3.4
CCOc1cccc(-c2c(C(=O)N/N=C(\C)c3ccncc3)nnn2-c2nonc2N)c1	x	1	x	x	-0.5
COc1cccc(N(CC(=O)Nc2cccc(F)c2)S(C)(=O)=O)c1	12	-9	-28	-6%	-1.5	Arbovirus inh repeat=6
Cc1cccc(NC(=O)COc2coc(CN3CCN(c4ccccc4)CC3)cc2=O)c1C	x	1	x	x	-2.2
O=C(Nc1ccncc1)C1(c2ccccc2)CCCC1	1	1	-15	5%	-0.1
Cc1nn(-c2ccccc2)nc1CNC(=O)C1CC1	x	-6	x	-9%	-2.6
COc1ccccc1NC(=O)CN1C(=O)NC2(CCCCCCC2)C1=O	4	7	x	0%	-4.2

Next section, starting with the last 6 of the part before.
SMILES	Arbovirus inh	Mtb betalactam	YopH inh	Mtb growth	RecA splice inh	others
CCOc1cccc(-c2c(C(=O)N/N=C(\C)c3ccncc3)nnn2-c2nonc2N)c1	x	1	x	x	-0.5
COc1cccc(N(CC(=O)Nc2cccc(F)c2)S(C)(=O)=O)c1	12	-9	-28	-6%	-1.5	Arbovirus inh repeat=6
Cc1cccc(NC(=O)COc2coc(CN3CCN(c4ccccc4)CC3)cc2=O)c1C	x	1	x	x	-2.2
O=C(Nc1ccncc1)C1(c2ccccc2)CCCC1	1	1	-15	5%	-0.1
Cc1nn(-c2ccccc2)nc1CNC(=O)C1CC1	x	-6	x	-9%	-2.6
COc1ccccc1NC(=O)CN1C(=O)NC2(CCCCCCC2)C1=O	4	7	x	0%	-4.2
CCn1c(CNC(=O)c2cccs2)nnc1SCC(=O)Nc1ccc(Cl)cc1	-15	15	-33	-9%	0.4
COCCn1cc(C(=O)NCc2cccs2)c2c3ccccc3n(C)c2c1=O	-3	x	-5	-2%	6.6
Cc1cccc(NC(=O)CSc2nnc(Cn3cnc4ccccc43)o2)c1	1	2	-24	-6%	-2.9
CCOC(=O)C1CCCN(C(=O)CN2CCN(Cc3ccc(Cl)cc3)C2=O)C1 (centres undefined)	1	-2	-2	-4%	1.7
O=c1[nH]c(O)c(C=NC2CCCCC2)c(=O)[nH]1	x	0	x	0%	-2.1
COc1ccc(/C=C/C(=O)c2ccc([N+](=O)[O-])o2)cc1OC	x	100	x	x	-25
COc1ccc2c(c1)O/C(=C\c1ccccc1C)C2=O	x	8	x	x	-2.8
COc1ccc(-c2noc(C3CCCN(C(=O)c4ccccc4)C3)n2)cc1 (centres undefined)	x	-5	x	x	1.8
O=C(Nc1ccc2c(c1)OCO2)c1cc(-c2cccc(O)c2)on1	x	10	x	x	0.2
O=C(C1CCC(Cn2c(=O)[nH]c3ccccc3c2=O)CC1)N1CCN(c2ccccc2)CC1 (centres undefined)	0	-1	9	x	-0.1	Arbovirus inh repeat=-4
Cc1cccc(-c2nc(NCCCN3CCOCC3)c3ccccc3n2)c1	-22	-12	-21	4%	0.1
Cc1ccc(N(Cc2ccc(C(=O)NCC3CCCO3)cc2)S(C)(=O)=O)cc1C (centres undefined)	2	-11	x	-3%	-0.7
COc1ccc(OC)c(Nc2nc(C)nc3c2oc2ccccc23)c1	x	-10	x	x	-1.1
Cc1ccc(Cn2ccc(=O)c(OCc3ccccc3)c2C)cc1	5	2	-34	2%	0.7
Cc1cc(C)c(S(=O)(=O)c2ccccc2C(C)C)c(=O)[nH]1	x	3	x	x	-0.2
CC(=O)c1cccc(NC(=O)CCNS(=O)(=O)c2cccc3nonc23)c1	2	3	x	1%	4.2
CSc1ccc(/C=C(\NC(=O)c2ccc(C)cc2)C(=O)Nc2cccc(C)c2)cc1	-13	3	-25	4%	-0.2
CS(=O)(=O)c1ccc2nc(NC(=O)Nc3ccc(Cl)c(Cl)c3)sc2c1	2	-2	-17	0%	-0.2
CC1CC(C)CN(CCCNC(=O)Cn2ncc3c([nH]c4ccccc43)c2=O)C1 (centres undefined)	x	-5	x	x	-0.9
COc1ccc(N2C(=S)N=C(Nc3cccc(C)c3)C23CCCCC3)cc1	5	7	-29	4%	-1.6
COc1ccc(-c2cc(=O)c3cc(OC)ccc3o2)cc1	-13	-5	x	-1%	0.8	Arbovirus inh repeat=-8
O=S(=O)(c1ccc(-n2cnnn2)cc1)N(C1CCCCC1)C1CCCCC1	0	6	-32	-3%	x
CN(C)c1ccc(C(=O)OCC(=O)NC2CCCCC2)cc1	2	-1	-38	-11%	-0.8
COC(=O)/C(=C\C(=O)c1ccc([N+](=O)[O-])cc1)Nc1ccc(OC)cc1	x	47	x	-4%	0.8
O=C1N=C(N2CCCC2)CN1c1ccccc1	1	7	-25	7%	1.4
Carrying on:
SMILES	Arbovirus inh	Mtb betalactam	YopH inh	Mtb growth	RecA splice inh	others
CC(C)n1c(N2CCN(S(=O)(=O)c3cccc([N+](=O)[O-])c3)CC2)nc2ccccc21	x	10	x	x	-1.1
CCOCc1cn(CC(=O)c2ccc([N+](=O)[O-])cc2)c(C)nc1=N	-13	-7	21	-2%	0.8
COc1ccccc1-c1cc(C(=O)N2CCc3ccccc3C2)c2ccccc2n1	42*	0	-12	x	21
COc1ccc(CNC(=O)CN(Cc2ccco2)C(=O)CCC(=O)Nc2ccccn2)cc1	x	3	x	x	3.8
O=C(Nc1nccs1)C1CC(=O)N(c2ccc(F)cc2)C1 (centres undefined)	x	5	x	x	-6.9
Cc1ccc(C)c(OCCCCN2CCNCC2)c1C	x	-11	x	x	1.2
CN(C)c1cncc(C(=O)O)c1	7	-3	x	-5%	-0.7
COc1cccc(CNC(=O)C(c2ccc(Cl)cc2)C(C)C)c1 (centres undefined)	-3	10	-4	5%	6.3
Fc1cccc(F)c1/C=N/N1CCOCC1	-4	-4	x	3%	-3.6
N#C/C(=C\N1CCOCC1)S(=O)(=O)c1ccc(Cl)cc1	x	-6	x	-11%	0.6
COC(=O)c1sccc1N/C=C(\C#N)S(=O)(=O)C(C)(C)C	x	-11	x	-8%	-1.8
COc1ccc(NS(=O)(=O)c2cc(Cl)ccc2Cl)cc1S(=O)(=O)N1CCCCC1	12	-7	x	0%	2.1
CC1(N2CCOCC2)CC2(O)C(=[N+]1[O-])CCc1c2no[n+]1[O-] (centres undefined)	11	1	8	-6%	0.7
O=C(c1ccccc1)N1CCN(c2ncnc3sc4c(c23)CCC4)CC1	6	3	-2	-1%	-3.3
CCc1ccc(C(C(=O)NC2CCCC2)N(CCOC)C(=O)CCC(=O)Nc2cc(C)on2)cc1 (centres undefined)	x	-2	x	x	1.6
O=C(c1ccc(-c2cccc(C(F)(F)F)c2)o1)N1CCN(c2ccccc2O)CC1	x	99	x	x	12
COc1ccc2nc(NS(=O)(=O)c3ccc(NC(C)=O)cc3)sc2c1	-2	3	-5	-15%	-0.1
CCOCC(=O)Nc1cc(C(F)(F)F)ccc1Oc1cccc(Br)c1	6	x	6	20%	6.2
COc1ccc(NC(=O)CC2S/C(=N\c3nccs3)N(C)C2=O)cc1 (centres undefined)	6	13	x	-3%	0.1
CCCC(=O)NC(c1ccc(OC)c(OC)c1)c1c(O)ccc2ccccc12 (centres undefined)	0	4	-33	-2%	-4.8
COc1cccc(CN2CCN(C(=O)Nc3ccc([N+](=O)[O-])cc3)CC2)c1	-16	3	x	7%	0.0
Cc1ccc(C(=O)O/N=C2\CCS(=O)(=O)c3sccc32)cc1	8	-11	-12	-7%	0.9
O=C(Cc1cccc2ccccc12)NNC(=O)c1ccc(Br)o1	x	-4	x	x	3.8
O=C(COc1ccccc1)Nc1cccc(-c2ccc(N3CCOCC3)nn2)c1	x	-1	x	x	-0.9
CCN(CC)S(=O)(=O)c1cccc(C(=O)OC2CCOC2=O)c1 (centres undefined)	x	1	x	x	1.1
(list continues)
SMILES	Arbovirus inh	Mtb betalactam	YopH inh	Mtb growth	RecA splice inh	others
O=C(Nc1ccc(F)cc1)Nc1ccc2ccccc2n1	x	-2	x	x	-5.5
CCc1ccc(S(=O)(=O)/N=C2\C=C(Nc3ccc(O)cc3)C(=O)c3ccccc32)cc1	x	24	x	x	97*
Cn1c(C(=O)N2CCN(Cc3ccc4c(c3)OCO4)CC2)cc2sccc21	-1	-8	-27	2%	-0.4
Cc1ccc(CNC(=O)C2CCC(=O)N2C2CCCCC2)cc1 (centres undefined)	0	8	-45	-1%	-1.9
Cc1ccc(NC(=O)c2ccc(Cl)cc2Cl)cc1O	x	22	x	6%	4.8
COc1ccc(COCC(CC(C)C)N2CCN(C(=O)c3cccc(C(F)(F)F)c3)CCC2=O)cc1 (centres undefined)	5	-7	-14	-3%	3.4
COc1ccc(-c2nnc(SCC(=O)Nc3ccccc3)n2C)cc1	10	-1	-24	-8%	x
COc1ccccc1C(=O)N=c1sc2c(C)ccc(OC)c2n1C	x	72	x	11%	0.4
Cc1ccc(NS(=O)(=O)c2cccc(C(=O)O)c2)cc1S(=O)(=O)N1CCOCC1	5	5	-22	-9%	-1.2
COc1ccc(S(=O)(=O)NCCC(=O)NC(C)c2ccccc2)cc1 (centres undefined)	-2	-7	-52	-4%	-0.8
O=C(Cc1ccc(-c2ccccc2)cc1)NCc1ccccc1	-9	5	-21	6%	-2.8
COC(=O)c1c(NC(=O)CSc2ccccc2N)sc(C)c1C	2	-11	x	3%	-1.8
CC1CCN(C(=O)CSc2n[nH]c(-c3cccs3)n2)CC1	x	-32	x	x	1.2
O=C(NC1(C(F)(F)F)NC(=O)N(c2ccc(F)c(Cl)c2)C1=O)c1ccncc1 (centres undefined)	4	-11	-34	-1%	0.4
COc1ccc(CNC(=S)N/N=C(\C)c2ccc(OC)cc2)cc1	x	89	x	-2%	8.5
COC(=O)Cc1ccc(OCc2ccc(Cl)nc2)cc1	-1	-5	x	-1%	2.4
CC(=O)Oc1cc2c(C(=O)NCc3ccncc3)c(C)oc2c2ccccc12	-13	3	x	8%	-0.2	Arbovirus inh repeat=-4
O=C(CN1C(=O)S/C(=C\c2ccc(C(=O)O)cc2)C1=O)Nc1ccccc1	x	-7	x	x	-0.1
CCCC(=O)Nc1ccc(OCC(=O)OC)cc1	0	4	-2	-1%	-0.7
O=c1c2cnn(-c3ccc(F)cc3)c2ncn1Cc1cccnc1	0	-1	-4	-5%	1.1
CCC(=NCCc1ccccc1)c1c(O)[nH]c(=O)[nH]c1=O	x	-6	x	-3%	x

2 compounds drawn at random from those above:
SMILES	Arbovirus inh	Mtb betalactam	YopH inh	Mtb growth	RecA splice inh	others
CCC(=NCCc1ccccc1)c1c(O)[nH]c(=O)[nH]c1=O	x	-6	x	-3%	x
COc1ccccc1C(=O)N=c1sc2c(C)ccc(OC)c2n1C	x	72	x	11%	0.4

These rows are one share of the data, so the mix of outcomes need not match the whole.
